# Screening results from PubChem.
# VDR inhibitor: blocks the human vitamin D receptor; P11473; VDR-SRC2-3 peptide fluorescence polarization, 2 h; Potency, µM, for the others: max response, negative = inhibition, actives largely listed as inhibitors; 400,000 tested, 0.93% active; AID 504847; active = well fitted inhibition curve with a large enough effect; inconclusive = small, poorly fitted or top-dose-only effect, or another doubt; inactive = no such curve, though single readings can be large or run the other way; also: series mostly up to about 120 µM
# Target sequence (P11473 whole entry, looked up): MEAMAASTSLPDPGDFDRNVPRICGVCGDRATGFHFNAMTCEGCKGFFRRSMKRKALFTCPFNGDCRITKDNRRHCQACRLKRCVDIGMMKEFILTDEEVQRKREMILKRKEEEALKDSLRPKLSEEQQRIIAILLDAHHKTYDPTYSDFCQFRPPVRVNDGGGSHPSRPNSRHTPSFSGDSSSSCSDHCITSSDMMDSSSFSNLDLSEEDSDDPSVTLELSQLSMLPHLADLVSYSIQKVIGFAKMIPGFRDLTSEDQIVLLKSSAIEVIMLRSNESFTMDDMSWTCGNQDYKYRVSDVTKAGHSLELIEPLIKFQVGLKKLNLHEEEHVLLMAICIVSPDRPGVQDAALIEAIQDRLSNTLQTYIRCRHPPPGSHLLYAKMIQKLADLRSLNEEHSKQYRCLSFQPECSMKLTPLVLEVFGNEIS
#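 FP read-out; VDR + SRC2-3 coactivator peptide; 23 nl compound by pintool; 2 h RT incubation; reagents held at 4 deg C, protected from light.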
# Numbers without * were called inactive; ? = inconclusive; & = joins results of further samples; [ ] = remark or other dose. % is scaled to controls: 0 for no effect and ±100 for the full control effect; potency is read from the fitted curve at half-maximal effect. Only part of the results is shown. The share of hits here may be higher or lower than overall.
SMILES,VDR inhibitor
COCCNC(=O)COc1ccc(C)cc1C,-22%
Cc1cc(Cl)ccc1OC(C)C(=O)OCC(=O)c1ccc[nH]1 (stereo not given),4%
COc1ccc(N2C(=O)CSC2c2ccc(F)cc2)cc1 (stereo not given),-4%
COc1cc(CC(=O)NCCCc2ccccc2)cc(OC)c1OC,0%
COc1cccc(OC)c1C(=O)Nc1ccc(N2CCN(C(=O)c3cccs3)CC2)cc1,-5%
O=C(Nc1ccccc1Cl)NN1CCCCCC1,10%
COc1ccc(-c2coc3cc(OC(=O)N4CCOCC4)ccc3c2=O)cc1,12%
O=C(Nc1ccc(C(=O)OCc2cc(=O)n3nc(C4CC4)sc3n2)cc1)c1cccc(F)c1,12%
CCc1cccc2c1NC1(CCCC1)CC2C (stereo not given),68%[activator]
Cc1cc2cc3c(cc2nc1SCC(=O)N1CCOCC1)OCO3,-3%
COc1cccc(C(=O)NC(=S)N2c3ccccc3CC2C)c1OC (stereo not given),3%
O=c1c2ccccc2oc2cc(-c3ccc4cc[nH]c4c3)ccc12,?
O=C(COC(=O)c1cccc(S(=O)(=O)NCc2ccccc2)c1)NCC1CCCO1 (stereo not given),3%
COc1cccc(N2CC(NC(=O)C(=O)c3c[nH]c4ccccc34)CC2=O)c1 (stereo not given),5%
Cc1ccc(-c2nc(N)sc2C)cc1,-29%
Cc1ncoc1C(=O)NC1CC(C)(C)Cc2c1cnn2-c1ccc(F)cc1 (stereo not given),-2%
COc1ccc(-n2c(C)nc3c(cnn3-c3ccc(C)c(C)c3)c2=O)cc1Cl,-4%
O=C(Nc1ccccc1C(F)(F)F)c1ccc(F)c(S(=O)(=O)N2CCOCC2)c1,4%
CCc1ccc(NC(=O)CNC(=O)Cn2ccc3ccccc3c2=O)cc1,23%
Cc1cc(C)c(S(=O)(=O)Nn2cnnc2)c(C)c1,-9%
Fc1ccccc1-n1[nH]nnc1=S,45µM*
COc1ccc2ccccc2c1CNC(=O)CC1C(=O)NCCN1CC(C)C (stereo not given),5%
COc1ccc(N2C(=O)C3CCCN3C2c2ccccc2)cc1Cl (stereo not given),-5%
N=c1ccn2c(n1)OC1C(O)C(CO)OC12 (stereo not given),2%&-1%&10%
CCCCn1c(=O)nc2n(-c3ccccc3C)c3ccccc3cc-2c1=O,0%
COc1cccc(C(=O)Nc2cccc(-c3nnc(-c4ccccc4)o3)c2)c1,-11%
Cc1cc([N+](=O)[O-])nn1CC(=O)Nc1ccccn1,5%
Fc1cccc(Nc2nc(Cl)nc(Cl)n2)c1,-8%
CCc1nnc(NC(=O)Cn2nc(-c3ccccc3OC)ccc2=O)s1,0%
CN(C)CCNC(=O)C(=O)NCC1OCCN1S(=O)(=O)c1cc(F)ccc1F (stereo not given),-1%
CCc1ccc(CNC(=O)C2CCN(c3nnc(C)c4c(C)n(-c5ccc(C)cc5)nc34)CC2)cc1,10%&11%
CC1=C(C)C(=O)C(N2CCOCC2)=CC1=O,-19%
O=S(=O)(NCCc1nnc2ccc(SCc3ccc(Cl)cc3Cl)nn12)c1ccccc1,8%
CCCCN(C)C1CCN(C(=S)Nc2cccc(SC)c2)CC1,6%
CC(Sc1ccc([N+](=O)[O-])cn1)C(=O)Nc1nccs1 (stereo not given),-6%
CCOC(=O)N1CCC(NC(=O)c2ccc3c(c2)N(Cc2ccc(C)cc2)CCS3)CC1,-7%
CCOC(=O)CNC(=O)C1CCCN(c2ncccn2)C1 (stereo not given),12%
N#Cc1nc(-c2ccc(Cl)cc2)oc1N1CCCCC1,11%
Cn1c(=O)c(-[n+]2ccccc2)c([O-])c2ccccc21,-3%
COCCn1c(SCC(=O)N(C(C)C)C(C)C)nnc1-c1cc2ccccc2cc1O,8%
O=[N+]([O-])/C=C/c1cn(Cc2ccc(Cl)cc2)c2ccccc12,25µM*
CC(CC(=O)NC(C)c1ccc2c(c1)OCCO2)c1ccccc1 (stereo not given),-6%
O=C1CCC2(C(=O)O)Sc3ccccc3N12 (stereo not given),-1%
CCC1CSC(Nc2ccc(C(=O)/C=C/c3ccc(Br)cc3)cc2)=N1 (stereo not given),?
Cc1ccc(S(=O)(=O)N(CC(O)CN2C(=O)NC(C)(C)C2=O)c2ccccc2)cc1 (stereo not given),19%
CC1(C)c2[nH]c3ccccc3c2C[C@@H]2C(=O)N(Cc3ccccc3Cl)C(=O)N21,-5%
Cc1ccccc1C(=O)N1CCC2CC1c1cc(Cl)ccc12 (stereo not given),-14%
O=C1CCCCN1CCC(=O)N1CCCC(Nc2ccccc2)C1 (stereo not given),1%
O=C(CCCn1c(=O)c2cccn2c2ccc(F)cc21)NCc1ccc(Cl)cc1,-3%
Cc1cccc(S(=O)(=O)C(C#N)c2nc3ccccc3nc2N2CC(C)OC(C)C2)c1 (stereo not given),-3%

# A run of entries from further up, for reference:
SMILES,VDR inhibitor
O=C(Nc1ccc(C(=O)OCc2cc(=O)n3nc(C4CC4)sc3n2)cc1)c1cccc(F)c1,12%
CCc1cccc2c1NC1(CCCC1)CC2C (stereo not given),68%[activator]

# Going on with the list.
SMILES,VDR inhibitor
Fc1ccccc1NC(=S)N1CCN(C/C=C/c2ccccc2)CC1,2%
COc1ccc(OC)c(S(=O)(=O)n2cnc3ccccc32)c1,-19%
Cc1onc(C(=O)Nc2ccc3c(c2)OCO3)c1[N+](=O)[O-],9%
CC(C)COC(=O)N1CCN(S(=O)(=O)c2ccc3c(c2)CCC3)CC1,3%
Cc1csc2nc(COc3ccccc3NC(=O)c3ccccc3Cl)cc(=O)n12,-13%
Cc1ccc(OCC(=O)N/N=C/c2cccn2C)cc1,-4%
Cc1cc(NC(=O)CSCC(=O)Nc2cc(C(F)(F)F)ccc2N2CCCC2)no1,-3%
O=C(N/N=C/c1ccc([N+](=O)[O-])o1)c1ccncc1,11%
CCc1nnc(NC(=O)C2CC(=O)N(c3ccc4c(c3)OCCO4)C2)s1 (stereo not given),56µM*
O=C(COC(=O)c1ccccc1)Nc1ccc(Cl)cn1,1%
Cc1ccc(NC(=O)c2ccc(NCC3CCCO3)c([N+](=O)[O-])c2)cc1Cl (stereo not given),0%
Cc1cc(=O)oc2c3c(cc(OCC(=O)Nc4ccc(CCO)cc4)c12)OC(C)(C)CC3,7%
CC(NC(=O)c1ccccc1F)C(=O)O (stereo not given),9%
Fc1ccc(NC(=S)N2CCCC2)cc1Cl,0%
C=CC[C@@H](CC(=O)OC(C)(C)C)C(=O)OC[C@@H]1CCCN1C(=O)[C@@H](CC=C)CC(=O)N[C@H](CO)Cc1ccccc1,-12%
OCCC1CN(CC#Cc2ccccc2)CCN1C1CCCC1 (stereo not given),-6%
CCN(CC)S(=O)(=O)c1ccc(N2CCOCC2)c(NC(=O)Cc2ccccc2F)c1,-10%
COc1cc(S(=O)(=O)NCC2CCCO2)ccc1Br (stereo not given),-4%
Cc1ccc(NS(=O)(=O)c2cccs2)cc1S(=O)(=O)N1CCCCCC1,23%
CCS(=O)(=O)N1CCC(C(=O)Nc2cccc(F)c2)CC1,-7%
CSc1nc2nc3c(c(=O)n2[nH]1)CN(Cc1ccccc1)CC3,10%
CCN1CCN(c2cc(C)c3cc(NC(=O)c4cccc(C(F)(F)F)c4)ccc3n2)CC1,6%
O=c1c2c3c(sc2nc2n1CCC2)CCCC3,8%
O=C(Nc1ccc(CN2CCOCC2)cc1)c1ccc(N2CCCC2)c([N+](=O)[O-])c1,-5%
CCOC(=O)N1CCN(C(=O)c2ccc(Cl)c(S(=O)(=O)N3CCCC3)c2)CC1,-9%
CCOc1ccc(OCC)c(NC(=O)CN(C)S(=O)(=O)c2cnc[nH]2)c1,-2%
O=S(=O)(NCc1ccccc1)c1ccccc1NCc1ccc(Cl)cc1,2%
CCOc1ccc(NC(=O)CN(Cc2ccccc2)S(=O)(=O)c2ccc(Cl)cc2)cc1,4%
CCOc1ccccc1NC(=O)CSc1nnc2ccc(-c3cccnc3)nn12,1%
COc1ccc(OC)c(NC(=O)c2ccc3c(c2)CCN3S(C)(=O)=O)c1,-7%
CCO[C@@H]1OC(C(=O)NCc2nc3ccccc3[nH]2)=C[C@H](c2csc3ccccc23)[C@H]1CCCO,-4%
CCOC(=O)C1(CC2CC2)CCN(Cc2cn(C)c3ccccc23)CC1,-1%
Cc1nc(N2CCOCC2)c2c(C(=O)N3CCN(c4cccc(C)c4C)CC3)c(C)oc2n1,14%
Cc1ccc(N2C(=O)c3ccccc3C2=O)cc1,10%
CCOc1ccccc1N1CCN(Cc2ccco2)CC1,8%
CCOC(=O)c1c(CSc2cccs2)n(C)c2cc(Br)c(O)c(CN(C)C)c12,-4%
CN(C)c1c(N)c(=O)oc2ccccc12,-17%
COc1cccc(N(C(=O)Cn2nnc(-c3cccs3)n2)C(C(=O)NC(C)C)c2ccc(C)o2)c1 (stereo not given),8%
Cc1ccccc1-n1nnnc1SCC(=O)NC1CC1,-9%
Cc1ccc2cc(CN(Cc3ccco3)S(=O)(=O)c3c(C)ccc4nsnc34)c(=O)[nH]c2c1,-27%

# Gathered by group: those above with a thiophene ring, fused or not
SMILES,VDR inhibitor
COc1cccc(OC)c1C(=O)Nc1ccc(N2CCN(C(=O)c3cccs3)CC2)cc1,-5%
Cc1ccc(NS(=O)(=O)c2cccs2)cc1S(=O)(=O)N1CCCCCC1,23%
O=c1c2c3c(sc2nc2n1CCC2)CCCC3,8%
CCO[C@@H]1OC(C(=O)NCc2nc3ccccc3[nH]2)=C[C@H](c2csc3ccccc23)[C@H]1CCCO,-4%
CCOC(=O)c1c(CSc2cccs2)n(C)c2cc(Br)c(O)c(CN(C)C)c12,-4%
COc1cccc(N(C(=O)Cn2nnc(-c3cccs3)n2)C(C(=O)NC(C)C)c2ccc(C)o2)c1 (stereo not given),8%

# (listing goes on)
SMILES,VDR inhibitor
CC(=O)Nc1ccc(OCCC[n+]2cccc(C(=O)[O-])c2)cc1,8%
c1ccc2sc(N3CCCN(Cc4nc(-c5cnccn5)no4)CC3)nc2c1,16%
CN(C)S(=O)(=O)c1ccc2c(c1)C(=O)c1cc(S(=O)(=O)N(C)C)ccc1CC2,15%
COc1ccccc1NCCC#N,23%
CN(C)C(=O)N1CCC(C(=O)N2CCCC(C(=O)c3ccc(C(C)(C)C)cc3)C2)CC1 (stereo not given),-16%
CCOc1ccc(C(=O)C(C)=O)c(OCC)c1,-21%
Cc1ccc(N(C(=O)CNC(=O)c2ccco2)C(C(=O)NCC2CCCO2)c2ccccc2)cc1C (stereo not given),-2%
Fc1ccc(CNCc2cccc(Br)c2)cc1,-6%
CCC(C)c1ccccc1NC(=O)c1cccnc1 (stereo not given),-12%
Cc1ccc(NC(=S)N2CCC(O)CC2)c(C)c1,-16%
O=C(NNC(=O)c1ccccc1F)C1=NN(c2ccccc2)C(=O)CC1,6%
CC1(C)OC2CC3C4CC(F)C5=CC(=O)C=CC5(C)C4C(O)CC3(C)[C@]2(C(=O)CO)O1 (stereo not given in full),3%
Cc1cccc(C)c1-n1ncc(C(=O)O)c1C1CCN(C(=O)OC(C)(C)C)CC1,5%
COc1ccc(CSc2nc(O)cc(=O)n2CC(C)C)cc1F,-9%
CCOc1ccc(NC(=O)COC(=O)CCN2C(=O)C3CC=CCC3C2=O)cc1OCC (stereo not given),-1%
COc1cccc(N(C(=O)c2ccco2)C(C(=O)NC2CCCC2)c2ccc(N3CCOCC3)cc2)c1 (stereo not given),26%
CC1=CC(C)(C)NC(=S)N1c1ccc(C)cc1,3%
Cc1onc(-c2ccccc2Cl)c1C(=O)NCc1nc(-c2ccccc2)no1,27%
COC(=O)c1ccccc1NC(=O)c1cc2nc(-c3ccccc3)cc(-c3ccccc3)n2n1,10%
COc1ccc(C(=O)CCN2CCC(C)CC2)cc1,79µM*
C=CC[C@H](CC(=O)N(CCO)Cc1ccccc1)C(=O)NC[C@H](OC(=O)[C@@H](CC=C)Cc1ccc(F)cc1)c1ccccc1,-3%
COc1cccc(C(=O)NC(=NCCc2c[nH]c3ccc(OC)cc23)Nc2nc(C)cc(C)n2)c1,-2%
Cc1cc(C)n2nc(SCC(=O)N3CCC(C)CC3)nc2n1,3%
COc1ccc(/C(C)=C2\SC(=S)N(CCC(=O)O)C2=O)cc1,-3%
Cc1cc(C)cc(-n2ccnc2SCC(=O)Nc2nnc(C)s2)c1,2%
Cc1ccc(NC(=O)Cn2c(=O)n(CCc3ccccc3)c(=O)c3c4c(sc32)CCCC4)c(C)c1,-13%
COc1ccccc1C(=O)Nc1ccc(S(=O)(=O)N2CCC(C)CC2)cc1,4%
COC(c1ccccc1)c1nnc(CCC(=O)N(C)Cc2cccc(-n3cccn3)c2)o1 (stereo not given),0%
Cc1cccc(C)c1N1CCN(S(=O)(=O)c2ccccc2)CC1,-12%
CCOC(=O)C(=CNc1ccc(NC2=NCC(C)S2)cc1)C(=O)OCC (stereo not given),0%
O=C(NCCc1ccccc1)c1ccc2c(c1)N(Cc1ccc(F)cc1)C(=O)CS2,-13%

# Entries above shown as hits in VDR inhibitor.
SMILES,VDR inhibitor
Fc1ccccc1-n1[nH]nnc1=S,45µM*
O=[N+]([O-])/C=C/c1cn(Cc2ccc(Cl)cc2)c2ccccc12,25µM*
CCc1nnc(NC(=O)C2CC(=O)N(c3ccc4c(c3)OCCO4)C2)s1 (stereo not given),56µM*
COc1ccc(C(=O)CCN2CCC(C)CC2)cc1,79µM*
